# Assay outcomes: PubChem BioAssay, Johns Hopkins Ion Channel Center
# KCNQ2 pot: enhances the rat KCNQ2 potassium channel. O88943. B-score at 10 µM. 0.54% of 310,000 active. CHO-K1 KCNQ2, FluxOR thallium flux fluorescence; stronger effect = higher value;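 active = fluorescence ratio B-score at least 3 SD of library B-scores, with initial fluorescence B-score within 3 SD, cut at about 5.3 in these data; same plate scores as AID 2156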;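 also: B-score of peak minus minimum over baseline fluorescence ratio after K+ and Tl+ stimulus; positive B-score means potentiation of KCNQ2 with more thallium influx and brighter signal; only the inactives scoring about 0 or higher are listed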
# Target sequence (O88943 whole entry, looked up): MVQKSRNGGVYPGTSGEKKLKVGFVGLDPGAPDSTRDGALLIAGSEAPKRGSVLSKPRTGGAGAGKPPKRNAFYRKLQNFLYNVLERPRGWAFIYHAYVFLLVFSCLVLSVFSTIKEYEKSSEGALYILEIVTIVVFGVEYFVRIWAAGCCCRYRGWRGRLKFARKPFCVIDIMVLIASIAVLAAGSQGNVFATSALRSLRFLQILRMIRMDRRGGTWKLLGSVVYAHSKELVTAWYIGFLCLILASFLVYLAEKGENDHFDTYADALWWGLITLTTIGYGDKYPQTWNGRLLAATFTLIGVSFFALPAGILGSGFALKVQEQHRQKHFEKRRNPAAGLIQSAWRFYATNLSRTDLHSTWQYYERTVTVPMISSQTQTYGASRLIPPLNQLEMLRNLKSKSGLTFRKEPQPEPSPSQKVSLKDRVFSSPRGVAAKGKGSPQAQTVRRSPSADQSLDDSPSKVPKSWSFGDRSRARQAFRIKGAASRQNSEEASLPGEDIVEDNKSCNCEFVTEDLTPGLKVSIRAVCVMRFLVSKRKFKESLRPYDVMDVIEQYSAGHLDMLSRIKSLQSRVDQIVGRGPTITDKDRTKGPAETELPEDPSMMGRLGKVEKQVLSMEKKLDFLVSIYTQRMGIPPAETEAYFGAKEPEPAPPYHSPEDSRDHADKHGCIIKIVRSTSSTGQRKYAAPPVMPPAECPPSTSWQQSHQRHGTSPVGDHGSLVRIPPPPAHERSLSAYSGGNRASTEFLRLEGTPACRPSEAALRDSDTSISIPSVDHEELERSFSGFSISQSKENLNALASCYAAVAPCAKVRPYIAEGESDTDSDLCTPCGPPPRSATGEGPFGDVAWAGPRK
# KCNQ2 pot baseline: further read-out of KCNQ2 pot, marked with its call; B-score; compound at 10 µM; measured here: initial fluorescence intensity artifact check;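 brightness before thallium and not channel activity; 0 = typical well and far values either way flag optical interference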
# * = called active by the depositor. Only part of the results is shown, so the mix of outcomes need not match the whole.
SMILES,KCNQ2 pot,KCNQ2 pot baseline
O=C(NC(Nc1nc2ccc([N+](=O)[O-])cc2s1)(C(F)(F)F)C(F)(F)F)c1ccccc1,3.2,-0.2
COc1cccc(CN2CC(C(=O)N(C)C3CCOCC3)CCC2=O)c1 (stereo not given),1.7,0.85
CC(=O)Nc1ccc(NC(=O)c2cc(=O)c3ccccc3o2)cc1,0.7,-1.75
Cc1cc(C(F)(F)F)nn1CC(=O)NNC(=S)Nc1ccc(F)cc1,1.89,-1.05
CC(C)c1ccccc1NC(=S)N(C)C,1.26,0.05
CC12CCC(C(=O)N(NC(=O)c3cccnc3)C1=O)C2(C)C (stereo not given),1.02,-0.14
Cn1c(=O)[nH]c(=O)c2c1nc(NCCCO)n2Cc1ccc(F)cc1,0.16,-0.01
Cc1ccc(-c2nn(C)c(=O)c3ccccc23)cc1CO,0.3,-2.46
Cc1ccccc1CCN(C(=O)CN1C(=O)c2ccccc2S1(=O)=O)C(C(=O)NCC1CCCO1)c1ccncc1 (stereo not given),0.27,0.97
c1ccc(COc2cccc(CN3CCCCC3)c2)cc1,1.88,-0.79
CC(C(=O)Nc1cccnc1)C1Sc2ccccc2NC1=O (stereo not given),1.49,-0.62
CCN(CC)c1ccc(/C=N/NC(=O)c2nnn(-c3nonc3N)c2-c2ccc(C)cc2)cc1,0.02,0.02

# 6 structures out of the list, sorted by number of heavy atoms, ascending.
SMILES,KCNQ2 pot,KCNQ2 pot baseline
CC(C)c1ccccc1NC(=S)N(C)C,1.26,0.05
Cc1ccc(-c2nn(C)c(=O)c3ccccc23)cc1CO,0.3,-2.46
CC(C(=O)Nc1cccnc1)C1Sc2ccccc2NC1=O (stereo not given),1.49,-0.62
CC(=O)Nc1ccc(NC(=O)c2cc(=O)c3ccccc3o2)cc1,0.7,-1.75
Cn1c(=O)[nH]c(=O)c2c1nc(NCCCO)n2Cc1ccc(F)cc1,0.16,-0.01
O=C(NC(Nc1nc2ccc([N+](=O)[O-])cc2s1)(C(F)(F)F)C(F)(F)F)c1ccccc1,3.2,-0.2

# (continued)
SMILES,KCNQ2 pot,KCNQ2 pot baseline
CCN(C(=O)COC(=O)CCC(=O)c1cccs1)c1c(N)n(Cc2ccccc2)c(=O)[nH]c1=O,0.88,-0.79
CC(=O)Oc1ccc(N(C(C)=O)S(=O)(=O)c2cc([N+](=O)[O-])ccc2C)cc1,0.34,-1.24
Cc1ccc2nnc(Cl)n2n1,0.86,1.19
O=C(Cn1cnc([N+](=O)[O-])n1)NC1CC1,0.51,0.03
O=C(Nc1nc2ccccc2s1)c1cc2c(s1)-c1ccccc1OC2,1.43,0.38
COc1ccc(NC(=O)/C(C#N)=C\c2cc(OC)c(OCc3ccc(C(=O)O)cc3)cc2Br)cc1,1.23,-0.94
CN(C)C(=O)COC(=O)c1cccc(CN2C(=O)c3ccccc3C2=O)c1,0.11,-0.76
O=C(COc1ccc(S(=O)(=O)N2CCCCC2)cc1)NCc1cccnc1,0.5,-0.15
Cc1cccc(OCCCC(=O)Nc2ccc(S(=O)(=O)Nc3ncccn3)cc2)c1C,0.47,0
Cc1ccc(C(=O)NCCc2nnc3ccc(SCC(=O)Nc4cc(C)on4)nn23)cc1,0.18,0.34
COc1cc(C(=O)N2CCN(S(=O)(=O)c3ccc(F)cc3)CC2)cc(OC)c1OC,0.35,-0.1
O=C(CCNS(=O)(=O)c1ccccc1)N1CCN(c2ccccc2F)CC1,0.12,-0.45
CSc1cccc(NS(=O)(=O)c2ccccc2)c1,2.44,-0.27
C/C(=N\NC(=O)C1CC1)c1ccc2c(c1)OCCO2,0.5,2.24
Nc1nnc(COc2cccc(C(F)(F)F)c2)s1,0.15,-0.84
Cc1nc(OCc2ccccc2)c2ccccc2n1,0.49,1.51
Cc1nc(-c2ccccc2)sc1C(=O)/C=C/N(C)C,0.07,-0.82
Nc1ccc2c(c1)N=[N+]([O-])c1cc(N)ccc1C2,0.01,-0.67
Cc1ccc(S(=O)(=O)N(CC(=O)NCC2CCCO2)C2CCCCC2)cc1 (stereo not given),0.18,-1.19
CCOC(=O)CNC(=O)CSc1ncnc2c1cnn2-c1ccc(Cl)cc1,0.73,-0.2
Cc1nnc(NC(=O)c2ccc(C)c(S(=O)(=O)N3CCCCCC3)c2)s1,1.37,-1.79
CCCn1c(CCC(=O)O)nc2cc(S(=O)(=O)N(CC)CC)ccc21,0.02,0.1
COc1ccc(C(C)=O)cc1CSc1ncccn1,2.05,-0.21
CC(C)CN1CCN(Cc2nc3ccccc3s2)CC1CCO (stereo not given),0.71,-0.11
COc1ccc(OC)c(S(=O)(=O)Nc2ccc3oc4c(c3c2)C(=O)CCC4)c1,0.6,0.99
O=C(Cc1n[nH]c(=O)c2ccccc12)OCC(=O)c1ccc(F)cc1,1.14,0.02
COC(CNC(=O)c1cc(C)nn1-c1ccccc1)OC,0.06,1.48
O=C(O)c1cccnc1C(=O)N1CCc2c([nH]c3ccccc23)C1C(F)(F)F (stereo not given),0.05,-0.65
O=C(NCc1ccc(N2CCCC2=O)cc1)c1ccc(F)cc1,0.33,0.41
Cc1cccc(NC(=O)c2ccc(NS(=O)(=O)c3c(C)noc3C)cc2)c1,0.94,-1.97
CC1NC(=O)N(C)C2NC(=O)N(C)C(c3ccccc3)C12 (stereo not given),2.09,0.09
Cc1cccc(Nc2nc(-c3ccccc3)cs2)n1,2.72,-1.65
COC(=O)c1[nH]c2cc(OC)ccc2c1NC(=O)CCN1CCN(Cc2ccc3c(c2)OCO3)CC1,0.17,-0.12
N#C/C(=C\c1ccc(O)cc1)C(=O)NCc1cccc(Cl)c1,0.55,0.72
CCCCN(C)CCC(=O)Nc1ccc(C)cc1,0.62,-0.52
CCOc1cc(C(c2c(C)[nH][nH]c2=O)c2c(C)[nH][nH]c2=O)ccc1OS(=O)(=O)c1ccccc1,0.29,1.96
Cc1ccc2[nH]cc(CCNC(=O)C3CCCO3)c2c1 (stereo not given),0.74,-0.6
CCCCn1nnnc1NCc1ccc(OC)c(OC)c1OC,0.98,1.23
COc1ccc(/C=C/C(O)=C2/C(=O)NC3(C)CC2c2ccccc2O3)c(OC)c1OC (stereo not given),0.53,-1.66
CCC(C(=O)NCC1CCCO1)N(Cc1ccccc1)C(=O)CNS(=O)(=O)c1ccccc1 (stereo not given),1.47,-1.99
C=CCn1c(CNC(=O)CCC)nc2ccccc21,0.33,0.56
CC1=NN(C(C#N)c2ccccc2C)C(C)(C)C1 (stereo not given),0.57,-0.06
CCOC(=O)Nc1ccc2c(C)cc(=O)oc2c1,0.23,0.4
O=C(Cc1ccccc1)NCCN1CCCC1,1.92,-1.87
Cn1c(=O)c2c(nc(N/N=C/c3ccc(OC(=O)c4ccco4)cc3)n2Cc2ccccc2)n(C)c1=O,0.05,0.91
CCOC(=O)C(NC(=O)Nc1ccc(F)cc1F)(Oc1ccc(F)cc1)C(F)(F)F (stereo not given),0.21,-0.08
CC1CCc2c(sc3nc(SCC(=O)O)n(-c4ccccc4)c(=O)c23)C1 (stereo not given),0.05,-3.25
Cc1ccc(C2c3[nH]c4ccccc4c3C[C@H]3C(=O)N(c4ccccc4C(=O)N4CCC[C@H]4C(=O)O)C(=O)N23)cc1 (stereo not given in full),1.34,-0.11
CCn1nc(C)cc1-c1nnc(SCC(=O)Nc2ccccc2)n1CCCOC,0.61,-0.66
CCOCCCNC(=S)N1CCC(NC(=O)c2ccco2)CC1,0.08,-0.74
O=C(COc1ccc([N+](=O)[O-])cc1)Nc1ccc(C(=O)Nc2ccccc2C(=O)O)cc1,0.12,3
Cn1nc(-c2ccc(Cl)cc2)c2cc(C(=O)N3CCCC3)sc21,0.11,-1.21
Cc1ccc2nc(-c3ccc(NC(=O)CSc4ccccc4)cc3)[nH]c2c1,1.47,1.6
CCNc1nc(NCC)nc(ON=C(C)C)n1,0.22,-1.82
COc1ccc(Cc2nnc(SC)[nH]c2=O)cc1OC,1.3,0.56
COc1cc(C)ccc1OCc1cc(C(=O)N2CCC(c3ccc(F)cc3)C2)no1 (stereo not given),0.02,0.39
COC(=O)c1cnc2ccccc2n1,0.18,1.95
Cc1ccc(S(=O)(=O)NCc2ccncc2)cc1C,2.06,-1.61
Cc1ccc(NC(=O)CCSc2nnc(Cc3ccccc3)o2)cc1,1.17,0.07
CNC(=O)CSc1nc(N)c2c3c(sc2n1)CCC3,0.12,-0.01

# An excerpt of these results, as tab-separated lines.
SMILES	KCNQ2 pot	KCNQ2 pot baseline
Cc1ccc2nc(-c3ccc(NC(=O)CSc4ccccc4)cc3)[nH]c2c1	1.47	1.6
CCNc1nc(NCC)nc(ON=C(C)C)n1	0.22	-1.82
COc1ccc(Cc2nnc(SC)[nH]c2=O)cc1OC	1.3	0.56
COc1cc(C)ccc1OCc1cc(C(=O)N2CCC(c3ccc(F)cc3)C2)no1 (stereo not given)	0.02	0.39

# (continued)
SMILES,KCNQ2 pot,KCNQ2 pot baseline
O=C(CCc1ccccc1)Nc1ccc(NC(=O)C2CC2)nc1,0.34,1.59
Cc1cccc(N/C(N)=N/c2nc(CSc3ccc(Cl)cc3)cc(=O)[nH]2)c1,2.34,-1.69
O=C(c1cnc2sccn2c1=O)N1CCCc2ccccc21,1.52,-0.21
CC[C@H]1OC(=O)C[C@@H](O)[C@H](C)[C@@H](O[C@@H]2O[C@H](C)C[C@H](N(C)C)[C@H]2O)[C@@H](CC=O)C[C@@H](C)C(=O)C=C[C@]2(C)O[C@H]2[C@@H]1C,1,-0.01
COc1ccc2nc(NC(=O)C3CCCN(S(=O)(=O)c4cccs4)C3)sc2c1 (stereo not given),0.02,0.51
O=C(Cc1c(F)cccc1Cl)Nc1ccc(S(=O)(=O)Nc2nccs2)cc1,0.42,1.01
O=C(Nc1nnc(-c2ccco2)o1)c1ccc(S(=O)(=O)N2CCOCC2)cc1,0.01,-1.33
O=C(CCN1CCN(c2ccccc2)CC1)NNC(=O)c1cccc2ccccc12,0.07,-0.59
Cc1ccnc(N(C(=O)Nc2ccccc2)C2=NCC(C)(C)S2)c1,0.04,0.15
CC(C)CNS(=O)(=O)c1ccc(CCC(=O)Nc2ccc3c(c2)OCCO3)cc1,0.26,-1.27
COc1ccc(-c2nnc(NC(=O)c3ccccc3[N+](=O)[O-])s2)c(OC)c1,0.02,-1.46
O=S(=O)(NC1=NCCC1)c1ccc(F)cc1,0.92,-0.59
COc1ccc(S(=O)(=O)N(C)CC(=O)Nc2cccc(C(C)=O)c2)cc1C,0.31,-1.47
NNC(=O)CSc1c(-c2ccccc2)c2cc(Cl)ccc2[nH]c1=O,0.59,-0.1
Cn1c(=O)c2c(n(C)c1=O)=NC1(CCCCC1)N=2,0.8,0.74
CC(NS(=O)(=O)c1cccc(S(=O)(=O)c2ccccc2)c1)C(=O)O (stereo not given),0.1,1.05
Cc1ccc(N(CC(=O)NCc2ccco2)C(=O)CCC(=O)Nc2nccs2)cc1C,0.04,0.49
COc1ccc(C2=NS(=O)(=O)N(C)C(C(=O)NC3CCCC3)=C2)cc1OC,0.21,-0.29
COC(C(=O)Nc1ccnn1C1CCN(Cc2ccc(C)o2)CC1)c1ccccc1 (stereo not given),0.76,-0.27
Cc1nc(SCC(=O)NC(=O)NC(C)(C)C)nc(C)c1C,0.76,-0.47
O=C(C(=O)c1cccnc1)c1cccnc1,0.01,-3.16
C=CCCCCCCCCC(=O)NN,1.47,2.2
CCOC(=O)c1sc(N)nc1-c1ccccc1,0.5,-2
Cc1cc(C)c(NC(=O)CS(=O)CC(=O)Nc2ccc(F)cc2F)c(C)c1 (stereo not given),0.27,1.8
Cc1[nH]c2ccccc2c1NC(=O)CN1CCN(Cc2ccc3c(c2)OCO3)CC1,0.03,-1.35
COc1ccc(-n2c(C)n[nH]c2=O)cc1OC,0.95,-1.67
Cc1ccccc1N1C(=O)C(Cl)=C(N2CCN(c3ccccc3)CC2)C1=O,0.61,-1.77
O=c1cc(-c2ccccc2)nc2c(-c3ccccc3)c(C(F)(F)F)[nH]n12,23.1*,0.69*
COc1cc(C(=O)Nc2nnc(CC(C)C)s2)c([N+](=O)[O-])cc1OC,0.25,-0.37
CC1=C(C(=O)OC(C)C)C(c2cccs2)NC(=O)N1 (stereo not given),0.91,-0.02
Nc1nc(-c2ccccc2)c(N=Nc2ccccc2Cl)s1,0.13,-0.12
CC(C)OC(=O)c1cc(Cl)c(=O)n(Cc2ccc(Cl)cc2Cl)c1,0.45,0.12
CCOc1ccc(CCNC(=O)c2sc3nc4n(c(=O)c3c2C)CCC4)cc1,1.15,-0.38
O=c1[nH]cnc2c1sc1nc(-c3ccccc3)c3c(c12)CCCC3,1.54,0.05
CC(C(=O)N(C)C)N(C#N)c1nc(N(C)C)nc(N(C)C)n1 (stereo not given),0.36,1.57
CCOC(=O)C(=CNc1ccc(N2CCOCC2)cc1)C(=O)OCC,1.27,0.5
CCCc1cc(=O)[nH]c(SCC(=O)Nc2ccc(C)cc2)n1,0.21,2.22
CC(C)(C)C1CCc2nc(NC(=O)Cc3cn4ccsc4n3)sc2C1 (stereo not given),0.02,-0.54
COc1ccc(NC(=O)C(c2ccc(OC)cc2)N(C)C(=O)c2cnccn2)cc1 (stereo not given),6.44*,2.51*
CN(C)S(=O)(=O)c1ccc2c(c1)c(=O)c(C(=O)N1CCN(c3ccccn3)CC1)cn2C,1.77,-1.64
CNC(=S)NC1CC2CCC(C1)N2Cc1ccccc1 (stereo not given),1.29,-1.4
Cc1nc(NC(=O)CCC(=O)O)sc1C(=O)N(C)C,0.22,0.98
O=C(Nc1c(C(=O)N2CCCC2)cnn1-c1ccccc1)c1cccc(F)c1,0.05,0.27
COc1ccccc1-n1c(SCC(=O)O)nc2c(sc(=S)n2-c2ccc(Cl)c(C)c2)c1=O,0.15,-0.05
COC(=O)c1ccccc1NC(=O)CSCC(=O)Nc1ccccc1,2.14,-0.26
